# Screens (PubChem)
# KCNQ2 inh: KCNQ2 potassium channel inhibitors, primary screen, cell-based, CHO-K1, FluxOR thallium flux, B-score (AID 2156). Potassium voltage-gated channel subfamily KQT member 2 (Rattus norvegicus), O88943. 20 min; stronger effect = lower value; only compounds with negative scores are shown here; some inactives read as strong as hits. B-score at 10 µM. 310,000 tested, 1.1% active;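 active means fluorescence ratio B-score at most minus 3 library SDs, with starting brightness B-score within 2 library SDs, cut at about -5.5 in these data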
# Target sequence (O88943 whole entry, looked up): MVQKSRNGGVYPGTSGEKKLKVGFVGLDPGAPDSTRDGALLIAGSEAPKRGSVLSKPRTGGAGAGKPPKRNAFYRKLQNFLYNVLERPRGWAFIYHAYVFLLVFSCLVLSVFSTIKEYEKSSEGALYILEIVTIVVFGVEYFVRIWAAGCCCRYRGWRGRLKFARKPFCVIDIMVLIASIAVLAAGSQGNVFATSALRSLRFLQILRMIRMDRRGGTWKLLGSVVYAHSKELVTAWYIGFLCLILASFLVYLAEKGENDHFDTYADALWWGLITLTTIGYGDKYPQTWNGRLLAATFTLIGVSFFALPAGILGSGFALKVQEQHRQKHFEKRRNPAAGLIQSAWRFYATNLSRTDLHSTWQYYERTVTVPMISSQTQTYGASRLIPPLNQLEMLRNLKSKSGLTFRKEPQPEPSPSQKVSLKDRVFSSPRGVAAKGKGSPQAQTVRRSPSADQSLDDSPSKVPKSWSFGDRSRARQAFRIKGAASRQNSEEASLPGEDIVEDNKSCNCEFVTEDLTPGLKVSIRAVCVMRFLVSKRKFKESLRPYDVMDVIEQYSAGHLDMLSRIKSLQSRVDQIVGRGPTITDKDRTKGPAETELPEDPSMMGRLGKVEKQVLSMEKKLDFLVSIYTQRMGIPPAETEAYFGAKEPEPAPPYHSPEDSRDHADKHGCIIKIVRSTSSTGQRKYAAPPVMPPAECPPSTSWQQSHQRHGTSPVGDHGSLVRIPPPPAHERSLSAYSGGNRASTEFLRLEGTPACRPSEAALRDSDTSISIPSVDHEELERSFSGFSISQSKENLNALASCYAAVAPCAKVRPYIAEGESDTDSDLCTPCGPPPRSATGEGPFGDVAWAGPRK
# KCNQ2 inh baseline: also measured in KCNQ2 inh; calls as there; B-score; measured here: initial fluorescence intensity artifact check;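 brightness before thallium and not channel activity; 0 = typical well and far values either way flag optical interference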
# An asterisk follows results filed as active; i = inactive. Not all compounds are listed; count on the stated rates, not on these rows.
SMILES,KCNQ2 inh,KCNQ2 inh baseline
COC(=O)c1cc2oc(C)cc2n1CC(=O)Nc1ccc(C)c(C)c1,i,-0.47
c1ccc2nc3c(cc2c1)CCCCCC3,i,0.02
COc1cc(/C=C/C2=NNC(=O)CC2)cc(OC)c1OC,i,3
Cc1ccccc1C(=O)Nc1ccccc1NC(=O)c1ccccc1Br,i,0.07
CC(C)(C)N(NC(=O)OCc1ccccc1)C(=O)c1ccccc1,i,1.9
O=C(NCCc1cnc[nH]1)c1ccc(-c2ccccc2)cc1,i,1.7
COc1cc(NC(=S)N2CCN(C(=O)c3ccco3)CC2)c(OC)cc1Cl,i,-0.15
CCOC(=O)COn1c(=O)c(-c2cccs2)[n+]([O-])c2ccccc21,i,17
O=C(Cc1c[nH]c2ccccc12)Nc1nc2ccccc2[nH]1,i,-0.41
C[C@H](NC(=O)NC1CCCc2ccccc21)C(=O)O (stereo not given in full),i,2.2
COc1cccc(N2CCC(N3CCN(C)C(CCO)C3)CC2)c1 (stereo not given),i,0.42
O=c1c(C(c2nnnn2C2CCCCC2)N2CCCCC2)coc2ccc(Cl)cc12 (stereo not given),i,0.02
NC(=O)C1(C(N)=O)OC1c1ccc(Cl)c(Cl)c1 (stereo not given),i,0.01
CC(C)(C)c1cn(-c2ccc(F)cc2)c(=S)[nH]1,i,-1.5
COc1ccc(N(C)C(=O)c2sc(Cl)nc2C)cc1,i,0.91
COc1ccc(C(=O)N(CC2CCCO2)C(C(=O)NCCC(C)C)c2ccc(C)cc2)cc1OC (stereo not given),i,1.3
CC(C)NC(=O)c1ccc(-n2nc(C(F)(F)F)c3c2CCCC3)cc1,i,-1.1
CCCn1c(NCc2cc(C)ccc2O)nc2ccccc21,i,1
CC1(C)C(=O)OC(c2cccn2-c2cccc([N+](=O)[O-])c2)C2(CCCCC2)C1=O (stereo not given),i,0.24
O=C(NCc1ccccc1)C(=O)Nc1cccc(C(=O)O)c1,i,-0.13
O=C(NCCN1CCNC1=O)C1CCC(=O)N(CCc2ccc(Cl)cc2)C1 (stereo not given),i,0.14
CCCCC(=O)O,i,0.09
CCOC(=O)C1(Cc2ccccc2)NC(c2ccccc2F)C2C(=O)N(CC)C(=O)C21 (stereo not given),i,0.44
O=C(c1cccc(F)c1)N1CCN(c2ccc([N+](=O)[O-])c(N3CCCCC3)c2)CC1,i,0.02
O=C(c1ccc2nsnc2c1)N1CCN(c2ccc([N+](=O)[O-])cc2)CC1,i,-0.7
CC1(C)CC(=O)C2=C(C1)NC(=O)CC2c1cc(F)ccc1F (stereo not given),i,-0.06
Cn1c(CSCc2ccc(Cl)cc2)nnc1SCC(=O)Nc1nc2ccccc2s1,i,0.17
N#Cc1ccc(Oc2ccc(S(=O)(=O)N3CCCC3)cn2)cc1,i,-0.03
CCOC(=O)CCN(Cc1cccs1)S(=O)(=O)c1ccc(F)cc1,i,-0.16
CCN(CC)Cc1nc2c(c(=O)[nH]1)C(CC)(CC)Cc1ccccc1-2,i,-0.26

# Sorted by SMILES length (descending): some entries from above.
SMILES,KCNQ2 inh,KCNQ2 inh baseline
CC1(C)C(=O)OC(c2cccn2-c2cccc([N+](=O)[O-])c2)C2(CCCCC2)C1=O (stereo not given),i,0.24
O=C(c1cccc(F)c1)N1CCN(c2ccc([N+](=O)[O-])c(N3CCCCC3)c2)CC1,i,0.02
COc1ccc(C(=O)N(CC2CCCO2)C(C(=O)NCCC(C)C)c2ccc(C)cc2)cc1OC (stereo not given),i,1.3
CCOC(=O)C1(Cc2ccccc2)NC(c2ccccc2F)C2C(=O)N(CC)C(=O)C21 (stereo not given),i,0.44
O=C(c1ccc2nsnc2c1)N1CCN(c2ccc([N+](=O)[O-])cc2)CC1,i,-0.7
CCN(CC)Cc1nc2c(c(=O)[nH]1)C(CC)(CC)Cc1ccccc1-2,i,-0.26
CC(C)NC(=O)c1ccc(-n2nc(C(F)(F)F)c3c2CCCC3)cc1,i,-1.1
CC1(C)CC(=O)C2=C(C1)NC(=O)CC2c1cc(F)ccc1F (stereo not given),i,-0.06
N#Cc1ccc(Oc2ccc(S(=O)(=O)N3CCCC3)cn2)cc1,i,-0.03
O=C(NCc1ccccc1)C(=O)Nc1cccc(C(=O)O)c1,i,-0.13
CC(C)(C)c1cn(-c2ccc(F)cc2)c(=S)[nH]1,i,-1.5
NC(=O)C1(C(N)=O)OC1c1ccc(Cl)c(Cl)c1 (stereo not given),i,0.01
COc1ccc(N(C)C(=O)c2sc(Cl)nc2C)cc1,i,0.91
CCCn1c(NCc2cc(C)ccc2O)nc2ccccc21,i,1
CCCCC(=O)O,i,0.09

# (listing goes on)
SMILES,KCNQ2 inh,KCNQ2 inh baseline
Cc1cc(C)c(C)c(C(=O)CSc2nnc(-c3ccc4[nH]c(C)c(C)c4c3)o2)c1C,i,-1.3
O=C(C1CCCN1C(=O)c1cccs1)N1CCc2ccccc21 (stereo not given),i,-1.4
O=C(Cn1nc(C(F)(F)F)c2c1CCCCC2)N1CCOCC1,i,-0.12
CC1CCCCN1CC(=O)Nc1ccc2c(c1)OC(F)(F)O2 (stereo not given),i,-2.2
O=[N+]([O-])c1ccc(C(O)CN2CCN(c3ccccc3)CC2)cc1 (stereo not given),i,-0.03
O=C(CN1CCN(Cc2ccccc2)CC1)NC(c1ccccc1)c1ccccc1,i,0.07
Cc1cc(C(=O)CN2CCCCC2)c(C)n1-c1ccc(F)cc1,i,1.6
O=C(NC1CCCC1)C1CCN(C(=O)c2cc(Cl)ccc2Cl)CC1,i,-2.1
Cc1ccc(C(=O)N2C3C=CC(C3)C2(C(F)(F)F)C(F)(F)F)cc1 (stereo not given),i,-0.11
O=S(=O)(Nc1ccc(F)cc1Cl)c1ccc(-c2cnc(C3CC3)o2)cc1,i,-0.02
O=C(Nc1ccsc1C(=O)O)c1ccccc1,i,0.27
O=C(COc1ncnc2cc(Cl)ccc12)c1ccc2c(c1)OCCO2,i,1
COc1ccc2o/c(=N\O)c(C(=O)Nc3ccc(C)cc3)cc2c1,-10*,1.1*
COC(=O)c1cn(Cc2c(C)cc(C)cc2C)nn1,i,0.04
Cc1cc(C)nc(SCC(=O)Nc2ccc(S(=O)(=O)Nc3cc(C)on3)cc2)n1,i,-0.3
COc1ccc(-c2csc(C)n2)cc1,i,0.25
COc1ccc(NC(=O)c2nn(C)c(=O)c3ccccc23)cc1S(=O)(=O)Nc1ccccc1Cl,i,-2.9
O=C(O)C1C2C=CC(C2)C1C(=O)Nc1ccc(C(=O)N2CCCCC2)c(Cl)c1 (stereo not given),i,-0.3
CCc1nonc1NC(=O)c1oc2c(C)c(C)ccc2c1C,i,0.31
COc1cc(CN2CCN(Cc3cn(C)c4ccccc34)CC2CCO)cc(OC)c1 (stereo not given),i,0.02
Cc1ccc(C(=O)NC(=S)NNC(=O)c2cccc([N+](=O)[O-])c2)cc1,i,2.5
Cc1ccc(OCCNC(=O)/C=C/c2ccco2)cc1C,i,0.8
O=C(c1ccc(-c2cc3ccccc3oc2=O)cc1)N1CCN(c2ccc(Cl)cc2[N+](=O)[O-])CC1,i,0.01
CC1=NN(C(N)=S)C(=O)C1N=Nc1ccc(C)cc1C (stereo not given),i,-0.68
Cc1oc2c(O)c(O)ccc2c(=O)c1-c1cnn(-c2ccccc2)c1,i,-3
Cc1cc(=O)[nH]c(NN=C2CCC(C(C)(C)C)CC2)n1 (stereo not given),i,-0.98
CC(C)CC(C(=O)OCC(=O)Nc1cccc(Cl)c1)N1C(=O)C2CC=CCC2C1=O (stereo not given),i,1.4
Cc1oc2c(CN3CCCCC3C)c(O)ccc2c(=O)c1-c1ccccc1 (stereo not given),i,-0.13
Cc1cc(S(=O)(=O)Nc2ccc(N3CCOCC3)cc2)ccc1Br,i,0.18
CCCN(CC(=O)Nc1ccc(F)c(F)c1F)C(=O)c1ccc(=O)n(Cc2ccccc2)n1,i,-0.46

# A different layout for some results above:
mol	KCNQ2 inh	KCNQ2 inh baseline
O=C(c1ccc2nsnc2c1)N1CCN(c2ccc([N+](=O)[O-])cc2)CC1	i	-0.7
CC1(C)CC(=O)C2=C(C1)NC(=O)CC2c1cc(F)ccc1F (stereo not given)	i	-0.06

# New compounds follow:
SMILES,KCNQ2 inh,KCNQ2 inh baseline
CCOC(=O)C1CCCN(C(=O)c2cc3ccccc3oc2=O)C1 (stereo not given),i,-0.07
Cc1ccccc1C(=O)Nc1cc(-c2cc(C(C)(C)C)oc2C)nn1C,i,-0.66
Cc1nn(Cc2c(F)c(F)c(F)c(F)c2F)c(C)c1NC(=O)c1ccc(COc2ccccc2Cl)cc1,i,0.22
O=C(Nc1ccc(-c2csc(-c3ccccc3)n2)cc1)c1ccccc1,i,0.07
COc1ccc(-c2nc(NC(=O)c3cc(C(C)(C)C)nn3C)sc2C)cc1,i,0.24
C=CCOC(=O)CC(NC(=O)c1ccccc1)c1ccccc1 (stereo not given),i,-2.5
Cc1noc(C)c1C(=O)NC1CCCc2ccccc21 (stereo not given),i,-0.36
O=S(=O)(c1cccc(-c2nc3n(n2)Cc2ccccc2-3)c1)N1CCCC1,i,-1.7
Cc1cccc(NC(=S)NCCc2ccc(F)cc2)c1C,i,2.8
CCOc1ccccc1NC(=O)COC(=O)C(CC)c1ccccc1 (stereo not given),i,-2.1
Cc1nc(N2CCC(C)CC2)c2oc3ccccc3c2n1,i,-0.06
CN(C)c1ncc(CN2CCC(CO)(CCCc3ccccc3)CC2)s1,i,0.58
Cn1c(=O)oc2cc(S(=O)(=O)NCc3ccc(F)cc3)ccc21,i,0.94
CC(=O)c1cccc(N(C(=O)CNC(=O)c2cccs2)C(C(=O)NCC2CCCO2)c2ccccc2)c1 (stereo not given),i,2.1
O=C(CCN1CCCC1)Nc1ccccc1,i,0.83
Cc1cc(C(=O)NCC23CC4CC(CC(C4)C2)C3)c(C)o1,i,0.48
Cc1cc(C)cc(NC(=S)N2CCC(NC(=O)c3ccco3)CC2)c1,i,-1.3
O=C(COc1cccc2ccccc12)NNC(=O)Nc1ccccc1,i,-0.08
CCCCC(=O)NCCNc1nc2c(c(=O)n(C)c(=O)n2C)n1Cc1ccc(F)cc1,i,0.43
COc1ccccc1-c1cn(C(C)(C)C)nc1C,i,0.12
CCOC(=O)c1oc2ccccc2c1NC(=O)c1cc(OC)cc(OC)c1,i,0.59
COC(=O)c1ccc(OCC(=O)c2ccc(C)c(C)c2)cc1,i,0.84
CCCCNc1c(NC(C)=O)c(=O)oc2ccccc12,i,0.65
COc1ccc(-c2nnc(SCC(=O)/C(C#N)=C(\C)N)o2)cc1,i,1
Cc1c(C#N)sc(C(N)=O)c1C,i,0.54
COc1cccc(-c2nnc(SCC(=O)Nc3cc(C)ccc3OC)n2N)c1,i,-0.16
COCCNC(=O)C(C)OC(=O)c1cc2occc2n1C (stereo not given),i,0.02
CCOc1ccc(/C=N/Nc2ccccc2)cc1,i,0.61
COc1ccc(-c2nn(-c3ccccc3)cc2/C=C2/SC(=S)N(CCCC(=O)O)C2=O)c(C)c1,i,0.01
Cn1cccc1/C=N\NC(=O)C1COc2ccc(C(C)(C)C)cc2O1 (stereo not given),i,1
CCOC(=O)c1ccccc1NC(=O)c1cn(CC)c2nc(C)ccc2c1=O,i,0.34
CCCc1ccc(Oc2cc(C)nc(N3CCOCC3)n2)cc1,i,0.27
Cc1ccc(CNS(=O)(=O)c2ccc3c(c2)N(C)CCO3)cc1,i,-0.24
Cc1ccc2nc(N3CCOCC3)c3nncn3c2c1,i,-0.54
Cc1ccc(NC(=S)N/N=C/c2c(C)nn(-c3ccccc3)c2N2CCCC2)cc1,i,1.4
Cc1cc(C)n(-c2ccc(NC(=O)C3CCCCN3C(=O)c3ccc(C)s3)cc2)n1 (stereo not given),i,0.09
COC(=O)COc1ccc(S(=O)(=O)Nc2ccccc2C(=O)OC)cc1,i,-0.91
Cc1cc(NC(=O)COn2nnc3ccc(Cl)cc32)no1,i,-0.42
N#Cc1nc(COc2ccc(Cl)cc2Cl)oc1N1CCOCC1,i,1
COC(=O)Cc1cc(=O)n2[nH]c(SC)nc2n1,i,0.9
CCN(CC)C(=O)c1cc(Cl)ccc1NC(=O)c1ccco1,i,-0.77
Clc1ccccc1CN1CCC(Cc2ccccc2)CC1,i,0.24
O=C(CCc1nnc2ccc(NCc3ccc(F)cc3)nn12)NC1CCCC1,i,1.2
CC(=O)C1=C(O)CC(c2ccccc2)CC1=NCCc1c(C)[nH]c2ccccc12 (stereo not given),i,-0.15
CC(C)n1nccc1N(Cc1ccc(Cl)cc1)S(=O)(=O)c1ccccc1,i,-0.55
CC1(C(=O)NNC(=O)c2ccc([N+](=O)[O-])cc2)CC1(Br)Br (stereo not given),i,0.14
NC(=O)C1CCN(C(=O)CSc2nc3ccccc3s2)CC1,i,-0.45
COc1ccc(C(C)=O)cc1CSc1nncn1C,i,0.24
Cc1ccc(C(=O)NCC2CCCO2)cc1[N+](=O)[O-] (stereo not given),i,1.3
CC1CN(S(=O)(=O)c2cccc(C(F)(F)F)c2)CC(C)O1 (stereo not given),i,0.3

# Later entries
SMILES,KCNQ2 inh,KCNQ2 inh baseline
COc1ccc(-c2cc(C(=O)N(C)CC(=O)Nc3ccccc3Br)c3ccccc3n2)cc1OC,i,-0.17
O=C(NCc1ccc(Cl)cc1)N1CCc2ccccc2C1,i,0.01
CCOc1ccc(S(=O)(=O)NCCC(=O)NCCc2ccc(C(C)C)cc2)cc1,i,0.01
CC1(C)Cc2ccccc2-c2nc(NN)[nH]c(=O)c21,i,0.77
CCOc1ccc2ccccc2c1/C=N/NC(=O)CNC(=O)Cc1ccccc1,i,-0.21
S=C(NCCSCc1ccc(Cl)cc1Cl)Nc1ccccc1,i,0.16
CN(C)S(=O)(=O)c1ccc(NC(=S)NC(=O)C2CCC2)cc1,i,0.64
O=c1c(Cl)c(N2CCN(S(=O)(=O)c3ccc(F)cc3)CC2)cnn1-c1cccc(Cl)c1,i,-0.27
O=C(CSc1nc2cccnc2n1Cc1ccccc1)NC1CCCCC1,i,0.53
Clc1cccc(CSc2nnc(-c3sccc3-n3cccc3)o2)c1,i,-1.2
Cc1ccc(CNC(=O)CS(=O)(=O)Cc2nc(-c3ccc(C)cc3)oc2C)cc1,i,-0.5
COc1cccc(OCc2cc(C(=O)N3CCN(C(C)=O)CC3)no2)c1,i,-0.52
